High-throughput results (PubChem)
AID504770 = E. coli YBA685 growth inhibition, screen for V. cholerae RctB inhibitors | E. coli YBA685 rctB-dependent plasmid, OD600 growth, 3 h; active compounds read low | z-score (concentration not given with the values) | actives 0.27% (n = 130,000);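 active = z-score under -2 on both plates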;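 note: wells of about 30 µL received 100 nL stock; score is relative to mean and SD of the test wells; the first replicate is given; strong numbers were not always called active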
Ba CapD inh = blocks the Bacillus anthracis CapD enzyme; purified CapD enzyme, fluorescence intensity read-out; active compounds read low; some hits fall short of the stated cut; z-score (no concentration beside the values); actives 0.23% (n = 140,000); AID 492967;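 active = z-score under -4 in either of two replicates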;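 note: stock transfer was 100 nL into about 40 µL; score is relative to mean and spread of the plate; one replicate is shown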
Starred values were filed as active, the others as inactive; . = no result given; & = joins results of further samples.

| compound | AID504770 | Ba CapD inh |
| --- | --- | --- |
| CCOc1ccc(C2C(N3C(=O)c4ccc([N+](=O)[O-])cc4C3=O)C(=O)N2c2ccc(Br)cc2)cc1 (centres undefined) | . | -0.68 |
| COc1ccc(CCNC(=O)CCn2c(SCC(=O)c3ccc(F)cc3)nc3ccccc3c2=O)cc1OC | . | -0.72 |
| CCc1ccc(NS(=O)(=O)c2ccc3c(c2)OCCN3C)cc1 | 0.7 | 2 |
| Cn1c2ccccc2c2nnc(SCCC(=O)O)nc21 | -0.1 | -0.5 |
| COc1ccc(OCCCC(=O)O)cc1 | -0.1 | -0.075 |
| CCCCSc1nnc(Cn2c(=O)sc3ccccc32)n1C | -0.65 | . |
| COC(=O)c1cccc(N2C(=O)/C(=C/c3ccc(Cl)cc3)C=C2c2ccccc2)c1 | . | 0.02 |
| Cc1oc(-c2ccc(Cl)cc2)nc1Cn1c(SCc2ccc(F)cc2)nc2ccncc21 | -0.55 | 0.51 |
| Cc1sc2nc(SCc3cc(=O)[nH][nH]3)nc(N)c2c1C | -0.85 | -0.56 |
| COC(=O)c1ccc(NC(=O)COC(=O)CSc2nc(C)cc(C)n2)cc1 | 0 | . |
| C1=C(c2ccc3c(c2)OCO3)Nc2ncnn2C1c1cccs1 (centres undefined) | . | -0.1 |
| CCOC(=O)/C(C#N)=c1\s/c(=C\c2ccc(OC)cc2)c(=O)n1CC | 0.45 | . |
| Cc1nn(C)c(C)c1NC(=O)c1ccccc1NC(=O)c1cccs1 | -0.15 | -0.72 |
| N#Cc1c(-c2ccccc2)nc(SCc2ccccc2)[nH]c1=O | 0.7 | 3.3 |
| CC(C)(C)c1cc2nc(C(F)(F)F)cc(N3CCN(c4ncc(C(F)(F)F)cc4Cl)CC3)n2n1 | 0 | 1 |
| O=C(NC(=S)Nc1ncc(C(F)(F)F)cc1Cl)c1ccccc1 | . | 0.71 |
| Cc1cc(OCn2ccc(C(=O)O)n2)ccc1Cl | -0.75 | . |
| O=C(CSc1nnc(-c2ccc(C(F)(F)F)cn2)o1)c1ccccc1 | -0.85 | -0.3 |
| COc1ccc(NC(=O)c2oc3ccccc3c2NC(=O)C2CCCCC2)cc1OC | 0.05 | . |
| CCOc1ccccc1/C=C(\C#N)c1cccc(Cl)c1 | . | -0.73 |
| CCOC(=O)c1csc(Cc2c(Cl)cccc2Cl)n1 | 0.4 | 0.25 |
| O=C(O)CCc1ccc2c(c1)OCO2 | . | -0.39 |
| CCCCN1C(=O)C(O)(CC(=O)c2c(C)coc2C)c2cc(Br)ccc21 (centres undefined) | 1.8 | -0.76 |
| COc1ccc(NC(=O)Nc2cccc(OC)c2)cc1 | -0.75 | 0.2 |
| CN(C)c1ccc(C2CC(c3ccc(Cl)cc3)=NN2C(=O)CCC(=O)O)cc1 (centres undefined) | . | -0.63 |
| COc1ccc(-c2[nH]ncc2CN2CCN(c3cc(C(F)(F)F)ccn3)CC2)cc1 | -0.75 | 2.5 |
| Oc1ccccc1Oc1c(F)c(F)nc(N2CCCC2)c1F | -0.85 | 10 |
| COC(=O)c1cnn(C(=O)c2ccccc2)c1NC(=S)Nc1ccc(C)cc1C | 0.55 | 0.93 |
| CCCCN1CCCc2cc(CN(Cc3ccco3)C(=S)Nc3ccc(Cl)cc3OC)ccc21 | 0.1 | 0.13 |
| Cc1c(Cl)cccc1N1C(=O)C2C(c3ccc(Cl)cc3)OC3(C(=O)c4ccccc4C3=O)C2C1=O (centres undefined) | . | -0.18 |
| Cc1ccc2nc(-c3cc4ccccc4o3)oc(=O)c2c1 | -0.15 | 1.4 |
| CN(C)c1cccc(N=Cc2c(O)n(-c3ccc(Cl)cc3)c(=O)[nH]c2=O)c1 | 0.7 | 0.59 |
| CCOC(=O)C1=C(C)N=c2s/c(=C\c3cc(Br)ccc3OC(C)=O)c(=O)n2C1c1ccc(OC)cc1 (centres undefined) | . | 0.04 |
| CCOC(=O)c1c(N)n(Cc2ccccn2)c2nc3ccccc3nc12 | -0.25 | . |
| COc1ccc(N2CCN(S(=O)(=O)c3ccc4[nH]c(=O)oc4c3)CC2)cc1 | 0.4 | 0.13 |
| CSc1ccccc1C(=O)OC(C)C(=O)NC1CCCCC1 (centres undefined) | 0.25 | . |
| Nc1nnc(CCS(=O)(=O)c2ccc(Cl)cc2)s1 | -0.2 | . |
| Cc1cc(C)c(/C=N/O)c(C)c1/C=N/O | 0.25 | . |
| CCCc1ccc(OC)cc1NC(C)=O | . | -0.01 |
| Cn1nc(C2CC2)cc1NC(=O)COc1ccc(Cl)cc1Cl | 0.45 | -1.3 |
| Cc1nn(-c2ccccc2)c2nc(-c3ccco3)cc(C(=O)O)c12 | 0.35 | . |
| O=C(Nc1ncc(Cc2ccccc2)s1)c1ccccc1 | -0.05 | 1.1 |
| COc1ccc(C2=NN(C(=O)c3ccc(Br)o3)C(c3ccccc3)C2)cc1OC (centres undefined) | . | 0.68 |
| CCOC(=O)c1sc(NC(=O)CN2C(=O)c3ccccc3C2=O)c(C(=O)OCC)c1C | 2.5 | . |
| Nc1nc(-c2ccccc2)nn1C(=O)c1cccs1 | 0.75 | . |
| Nc1nc(COc2cccc3cccnc23)nc(Nc2ccccc2)n1 | -0.7 | -0.005 |
| O=C(NC(Cc1ccccc1)C(=O)Nc1nc(-c2ccccc2)cs1)Oc1ccccc1 (centres undefined) | 0.05 | 0.46 |
| S=c1nc2[nH]c3ccccc3c2n[nH]1 | 1.4 | -0.41&-0.15 |
| CC(C)(C)OC(=O)N(CCOC(=O)N1CCN(Cc2ccccc2F)CC1)Cc1cc2ccccc2c2ccccc12 | . | -1.1 |
| Cc1cc2ncc(C(=O)Nc3ccccc3)c(C)n2n1 | -1.2 | 0.54 |
| COc1ccc(Br)c2c1-c1nc(NC(C)=O)sc1C2 | 0.1 | 0.065 |
| COc1ccc(N2C(=O)/C(=C/c3ccc(OCC(=O)O)c(Br)c3)C(=O)NC2=S)cc1 | . | -1.5 |
| COCCn1c(Cc2ccccc2)nnc1SCC(=O)N(C)C | 0.65 | . |
| CCc1ccc(Nc2ncnc3c2cnn3-c2ccccc2)cc1 | . | 0.67 |
| CCC(=O)NC(=S)Nc1cc(-c2nc3ncccc3o2)ccc1C | 0.15 | 0.7 |
| Cc1nc(C)c(-c2n[nH]c(=S)n2-c2ccccc2C(F)(F)F)s1 | 0.6 | 10 |
| CSc1ccc(/C=C2\SC(=O)N(C)C2=O)cc1 | 0.7 | -0.015 |
| CC1(C(=O)N2CCOCC2)CCC(C(=O)N2CCOCC2)C1(C)C (centres undefined) | 0.8 | . |
| CC1CCCCN1C(=O)COC(=O)c1ccc2[nH]c3c(c2c1)CCCC3 (centres undefined) | 0 | . |
| CC(C)(C)c1ccc(OCC(=O)Nc2ccc3c(c2)oc2ccccc23)cc1 | -0.1 | 0.045 |

(next part)
Screens in order – AID504770 | Ba CapD inh
Cc1c(Nc2cc(=O)oc3ccccc23)c(=O)n(-c2ccccc2)n1C
    -0.5 | -0.24
Cc1cccc(N2CCN(CCNC(=O)CCn3c(=O)c4cccn4c4cccnc43)CC2)c1C
    0.05 | 6.4
Cc1cccc(N(Cc2cc(=O)n3ccccc3n2)C2=NC3CS(=O)(=O)CC3S2)c1 (centres undefined)
    -1 | 42
CCCC(=O)N1CCCC(c2nc(-c3cccs3)no2)C1 (centres undefined)
    1.4 | .
Cc1nnc(N/N=C/c2c(O)n(-c3cccc(C(F)(F)F)c3)c(=O)c3ccccc23)[nH]c1=O
    -0.25 | .
CCc1ccc2[nH]c3nc(=S)[nH]nc3c2c1
    -1.3 | -0.48
CC(C)OC(=O)c1cccc(-c2nn[nH]n2)c1
    -0.05 | .
O=C(CSc1ncc(C(F)(F)F)cc1Cl)N(c1ccccc1)C1CCS(=O)(=O)C1 (centres undefined)
    1.1 | .
Cc1oc2ncnc(N3CCCCC3)c2c1C(=O)N1CCOCC1
    -0.85 | -0.25
CC1CCN(CCCNC(=O)c2coc3nc4ccccc4nc23)CC1
    0.65 | .
O=C(Nc1nc(-c2ccncc2)cs1)C1COc2ccccc2O1 (centres undefined)
    0.15 | 1.1
COC(=O)c1cn(NC(=O)C2CCCCC2)c(=O)c2ccccc12
    . | -3.2
CC(=O)N(CN1C(=O)C2CC=CCC2C1=O)c1cccc(Cl)c1 (centres undefined)
    1.2 | -0.055
COc1cc(OC)nc(C(SCCNC(=O)c2ccc(-c3ccccc3)cc2)c2ccccc2)n1 (centres undefined)
    . | -0.64
CCOC1(OCC)N=C(N)c2ccccc21
    0.15 | -1
O=c1c2[nH]c3ccccc3c2nc(SCCC2OCCO2)n1-c1ccccc1F
    -0.65 | .
Cc1cc(NCCO)cc(=O)n1Cc1ccco1
    -0.6 | .
COc1ccc2c(C)nc(Nc3nc4ccccc4c(=O)[nH]3)nc2c1
    . | -0.07
CC(C)CCOC(=O)CCN1C(=O)/C(=C/c2ccccc2)SC1=S
    . | -0.065
Cc1cc(/C=C2\NC(=O)NC2=O)c(C)n1-c1ccc(F)c(Cl)c1
    . | -0.6
COc1cnc(-c2ccncc2)nc1-c1ccc(C(F)(F)F)cc1
    . | 0.18
CC(NC(=O)OCCCc1cccnc1)C(=O)OCc1ccc([N+](=O)[O-])cc1 (centres undefined)
    . | 0.52
COC(=O)c1ccc(N=C2SC(C(=O)Nc3ccccc3OC)CC(=O)N2C)cc1 (centres undefined)
    . | -0.12
O=C(NNC(=O)c1ccc(Cn2cnc(Cl)c2Cl)o1)OCCOc1ccc2ccccc2c1
    . | -1
O=C(O)CCCn1c(=S)[nH]c2cc3c(cc2c1=O)OCO3
    -0.65 | -0.54
CCOc1ccc(NC(=O)CC2SC(=O)N(c3ccccc3)C2=O)cc1 (centres undefined)
    -0.55 | -0.09
S=c1[nH]c2cc(Cl)ccc2s1
    . | -1.4
Cc1ccc(N2C(=O)C3C4C=CC(C3C2=O)C2C3C(=O)N(c5ccc(C)cc5)C(=O)C3C42)cc1 (centres undefined)
    . | -0.26
COC(=O)C1Cc2ccccc2CN1S(=O)(=O)c1ccc(C)cc1 (centres undefined)
    1.1 | 0.56
CCOC(=O)C(O)(c1ccc(N)cc1)C(F)(F)F (centres undefined)
    . | -0.22
CCOC(=O)C1=C(CN(C)Cc2ccccc2)NC(=O)NC1c1ccccc1 (centres undefined)
    0.1 | 0.23
COC(=O)c1ccc(C2=NC(C)(C)CO2)cc1
    . | -0.74
O=C(c1cc(-c2ccc(Br)cc2)nc2ccccc12)N1CCCC1
    -0.25 | 0.41
COC(=O)n1c(=O)oc2cc(S(=O)(=O)Nc3ccc(C)cc3)ccc21
    0.1 | -0.095
NC(=NC(=O)c1cccs1)c1cccs1
    -0.3 | -2.2
OCC[n+]1c(-c2ccccc2)csc1Nc1ccccc1
    -0.85 | -0.28
COc1cccc(CN(C)C(=O)c2cccnc2SC)c1
    -0.1 | .
COc1cc(NC(=O)CCc2c(C)nc3cc(-c4cccc(F)c4)nn3c2C)cc(OC)c1OC
    0.05 | 1.1
Cc1ccc2c(c1)cc(CN(Cc1ccco1)S(=O)(=O)c1ccccc1)c1nnnn12
    0.9 | .
CC1(C)Cc2nc3sc4c(NN)ncnc4c3cc2CO1
    2 | -0.75
COc1cc(OC)c(NC(=O)C2CCCN(c3ncnc4onc(C)c34)C2)cc1Cl (centres undefined)
    -0.7 | 0.22
CS(=O)(=O)Nc1nc2n(n1)C(c1ccccc1)C=C(c1ccccc1)N2 (centres undefined)
    0.3 | 5.5
COc1ccccc1Nc1nnns1
    . | -1
NC(N)=NS(=O)(=O)c1ccc(NC(=O)OC2CCCC2)cc1
    -0.8 | 12
CC1CCN(Cc2ccc(NC(=O)COCc3cc(-c4ccco4)on3)cc2)CC1
    0.15 | 0.085

Quoted from the listing:
In AID504770, `OCC[n+]1c(-c2ccccc2)csc1Nc1ccccc1` shows -0.85
In Ba CapD inh, `NC(N)=NS(=O)(=O)c1ccc(NC(=O)OC2CCCC2)cc1` shows 12

(cont.)
Screens in order – AID504770 | Ba CapD inh
CCOC(=O)c1cc(-c2ccccn2)nc2c1c(=O)n(CC(=O)OC)c(=O)n2Cc1ccccc1
    -0.65 | .
CCOC(=O)C1C(c2ccc(C#N)cc2)C(C(=O)OCC)C(O)(C(F)(F)F)NC1(O)C(F)(F)F (centres undefined)
    . | -0.18
Cc1cc(C)nc(NS(=O)(=O)c2ccc(NC(=O)CSc3nc4ccccc4[nH]3)cc2)n1
    . | -0.075
Cc1cc(Cl)ccc1NC(=O)CCC(=O)N/N=C1\CCCCC1C (centres undefined)
    -0.15 | 0.22
Cc1ccc(-n2ncc3c(NCCc4c[nH]c5ccccc45)ncnc32)c(C)c1
    . | -0.9
O=C(NCC1COc2ccccc2O1)Nc1ccc(Cl)cc1 (centres undefined)
    0.3 | 0.82
O=C(/C=C/c1ccco1)OCC(=O)c1ccc(Cl)s1
    -0.6 | .

Among those listed so far, these contain bromine.
Screens in order – AID504770 | Ba CapD inh
CCOc1ccc(C2C(N3C(=O)c4ccc([N+](=O)[O-])cc4C3=O)C(=O)N2c2ccc(Br)cc2)cc1 (centres undefined)
    . | -0.68
CCCCN1C(=O)C(O)(CC(=O)c2c(C)coc2C)c2cc(Br)ccc21 (centres undefined)
    1.8 | -0.76
CCOC(=O)C1=C(C)N=c2s/c(=C\c3cc(Br)ccc3OC(C)=O)c(=O)n2C1c1ccc(OC)cc1 (centres undefined)
    . | 0.04
COc1ccc(C2=NN(C(=O)c3ccc(Br)o3)C(c3ccccc3)C2)cc1OC (centres undefined)
    . | 0.68
COc1ccc(Br)c2c1-c1nc(NC(C)=O)sc1C2
    0.1 | 0.065
COc1ccc(N2C(=O)/C(=C/c3ccc(OCC(=O)O)c(Br)c3)C(=O)NC2=S)cc1
    . | -1.5
O=C(c1cc(-c2ccc(Br)cc2)nc2ccccc12)N1CCCC1
    -0.25 | 0.41

A draw from above in order of heavy-atom count, ascending.
Screens in order – AID504770 | Ba CapD inh
O=C(/C=C/c1ccco1)OCC(=O)c1ccc(Cl)s1
    -0.6 | .
Cc1ccc(-n2ncc3c(NCCc4c[nH]c5ccccc45)ncnc32)c(C)c1
    . | -0.9
Cc1cc(C)nc(NS(=O)(=O)c2ccc(NC(=O)CSc3nc4ccccc4[nH]3)cc2)n1
    . | -0.075

The list is partial; rates above refer to the full screens.
